# FGF22 binding – binders of human FGF22 protein, primary screen, FGF22 synaptogenesis inhibitor project, biophysical, thermal shift, single point. recombinant FGF22 thermal shift, SYPRO orange fluorescence; percent of sucrose octasulfate shift, DMSO zero. Fibroblast growth factor 22 (Homo sapiens), Q9HCT0. calls only at 9.99 µM. actives 1.5% (n = 340,000);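 active means melting point raised past a set limit in the mean and every replicate; inconclusive means no clear call; three in four hits are not shown here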
# Target sequence (Q9HCT0 whole entry, looked up): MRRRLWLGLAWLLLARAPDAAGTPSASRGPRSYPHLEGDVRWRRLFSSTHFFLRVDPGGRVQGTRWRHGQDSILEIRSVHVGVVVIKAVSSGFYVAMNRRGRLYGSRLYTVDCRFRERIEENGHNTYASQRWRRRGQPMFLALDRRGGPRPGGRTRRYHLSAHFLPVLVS
# Calb FLC – C. albicans growth inhibition with fluconazole, primary screen, CaCi-2 strain, Alamar Blue fluorescence. C. albicans CaCi-2 (fluconazole-resistant clinical isolate) + fluconazole, 48 h. growth inhibition, % (no concentration beside the values). actives 0.57% (n = 300,000);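 active means most replicates above 75%; inconclusive means exactly half above 75%; inactive means most below 75%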;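 further: all wells also contain fluconazole at 8 µg/ml as a sub-toxic cotreatment; 0% = median of DMSO wells and 100% = median of geldanamycin control wells; wells of about 8 µL received 7.5 nL stock; the first replicate is given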
# T cruzi repl – inhibitors of intracellular T. cruzi growth, primary screen, luminescence, NIH3T3 host cells | T. cruzi beta-gal in NIH3T3, 90 h | inhibition, % (no concentration beside the values) | actives 1.4% (n = 300,000) | AID 1885, 2009;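 active means mean inhibition across valid replicates above about 55%, limit read from the data; inconclusive means mean below that limit but half or more replicates reach it; inactive means mean below it, under half of replicates reach it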;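 further: signal also drops with host cell toxicity which is not excluded here; 0% = plate median of DMSO wells and 100% = zero luminescence signal; higher percent means less beta-gal luminescence so fewer parasites; stock transfer was 50 nL into about 50 µL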
# ALR inh – inhibitors of human ALR sulfhydryl oxidase, primary screen, biochemical, H2O2 detection, HRP-luminol luminescence, single point; inhibition, % (concentration not given with the values); FAD-linked sulfhydryl oxidase ALR (Homo sapiens), P55789; purified ALR, DTT oxidation; actives 3.8% (n = 290,000);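 active means mean and each replicate at 75% or more; inconclusive means only one of the two met; inactive means neither met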;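 further: stock transfer was 7.5 nL into about 7.5 µL; 0% = neutral wells and 100% = wells with inactivated enzyme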
# Target sequence (P55789 whole entry, looked up): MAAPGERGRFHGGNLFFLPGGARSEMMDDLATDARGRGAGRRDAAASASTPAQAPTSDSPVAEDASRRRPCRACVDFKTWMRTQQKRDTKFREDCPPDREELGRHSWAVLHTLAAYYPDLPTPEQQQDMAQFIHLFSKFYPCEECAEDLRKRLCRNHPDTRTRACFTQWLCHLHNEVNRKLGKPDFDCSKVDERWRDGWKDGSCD
# AF4-AF9 inh – inhibitors of AF4 peptide binding to AF9, primary screen, biochemical, AlphaScreen, biotin-AF4 peptide, FLAG-AF9, single point | inhibition, % at 10 µM | actives 0.47% (n = 350,000);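 active means every replicate reaching a set inhibition limit, whatever the replicate mean, cut at about 25% in these data; inconclusive means mean inhibition reaches that limit but some replicates miss it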;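 further: 0% = plate neutral control median and 100% = total signal loss; the record names both 10 and 1 µM as test concentration; the first replicate is given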
# Target sequence (P42568 whole entry, looked up): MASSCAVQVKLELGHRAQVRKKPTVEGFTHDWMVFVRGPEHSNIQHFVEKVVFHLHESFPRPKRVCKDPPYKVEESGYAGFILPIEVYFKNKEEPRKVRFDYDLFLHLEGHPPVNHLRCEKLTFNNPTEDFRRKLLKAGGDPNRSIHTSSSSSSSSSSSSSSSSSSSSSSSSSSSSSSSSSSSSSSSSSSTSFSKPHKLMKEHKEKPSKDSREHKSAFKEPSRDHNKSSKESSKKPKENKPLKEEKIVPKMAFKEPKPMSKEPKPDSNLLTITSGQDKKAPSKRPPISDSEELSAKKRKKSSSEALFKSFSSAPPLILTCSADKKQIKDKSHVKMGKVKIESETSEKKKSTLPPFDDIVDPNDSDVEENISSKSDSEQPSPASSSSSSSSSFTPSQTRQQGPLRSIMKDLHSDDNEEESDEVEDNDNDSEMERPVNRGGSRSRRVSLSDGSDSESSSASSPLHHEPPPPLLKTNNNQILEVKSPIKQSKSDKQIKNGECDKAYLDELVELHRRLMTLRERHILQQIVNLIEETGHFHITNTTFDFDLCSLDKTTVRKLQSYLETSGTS
# Beta cell apopt – inhibitors of cytokine-induced beta cell apoptosis, primary screen, luminescence; AID 435005, 2010; protection from apoptosis, % (test concentration not listed); actives 0.8% (n = 300,000); INS-1E cytokine-induced death, ATP luminescence, 48 h; percent of positive-control rescue, neutral wells zero;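 active means all replicates at 75% or more, or half of them and the mean; inconclusive means half reach 75% but not the mean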;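 further: 0% = cytokine-treated negative control wells and 100% = positive control rescue; higher means more ATP so stronger rescue from cytokine killing; wells of about 40 µL received 100 nL stock; the first replicate is given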
# RanGTP-Impb inh – inhibitors of RanGTP-importin-beta interaction, primary screen, biochemical, FRET, CFP-Ran, YFP-importin-beta, homogeneous; Ran GTPase (GTP-bound) - importin-beta complex; cell-free CFP-Ran/YFP-importin-beta FRET ratio; inhibition, % (no concentration beside the values); actives 1.1% (n = 300,000); AID 2216, 2009;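 active means most replicates above 15%; inconclusive means exactly half above 15%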;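 further: 0% = DMSO wells and 100% = Ran loaded with GDP instead of GTP; wells of about 40 µL received 100 nL stock; the first replicate is given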
# rRNA inh HTS – reduced GFP signal of wild-type E. coli, primary screen, bacterial rRNA inhibitor project, GFP/RFP fluorescence, OD600, single point | E. coli WT GFP vs humanized-ribosome RFP mutants, 24 h; hits give low values; DMSO median 0, no signal -100 | GFP signal change (wild-type ribosome), % (no concentration beside the values) | actives 1.6% (n = 350,000) | AID 720706, 2013;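 active means significant combined selectivity score with lowered wild-type GFP, culture density cut under 30%, mutant RFP and density less affected; inactive means any of these conditions unmet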; further: one replicate is shown; some compounds called inactive have numbers as strong as hits
# rRNA inh HTS OD600 – also measured in rRNA inh HTS; calls as there; OD600 change, %; measured here: OD600 growth;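 optical density of the mix in the first replicate; 0 = DMSO median and -100 = no signal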
# rRNA inh HTS RFP – further read-out of rRNA inh HTS, marked with its call; RFP signal change, %; measured here: RFP humanized mutant strains;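 first replicate; 0 = DMSO median and -100 = no signal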
# * marks the source's active call; other numbers are inactive results; i = inactive; ? = inconclusive; / = not tested or not shown; + = active, no number.
SMILES,FGF22 binding,Calb FLC,T cruzi repl,ALR inh,AF4-AF9 inh,Beta cell apopt,RanGTP-Impb inh,rRNA inh HTS,rRNA inh HTS OD600,rRNA inh HTS RFP
COc1ccc(CNC(=O)CN(CC2CCCO2)C(=O)CNS(=O)(=O)c2ccc(C)cc2)cc1 (stereo not drawn),/,-21,10,-6,/,-2,-2.0,/,/,/
COc1ccc(C(=O)NCC(=O)OCC(=O)Nc2sccc2C#N)cc1OC,i,0,-5,-14,-2.0,0,3.2,-3,-1,2.8
Cc1ccccc1NC(=S)Nc1ccc2[nH]c(=O)[nH]c2c1,i,8,-15,88*,-1.3,0,7.2,20,13,3.0
COc1ccc(/C=N/NC2=NS(=O)(=O)c3ccccc32)cc1,i,4,-3,-2,0.8,-8,-2.8,0,12,5.5
O=[N+]([O-])c1ccc(N2CCN(CCO)CC2)cc1NCc1ccco1,/,5,11,1,/,/,-4.2,/,/,/
COc1ccc(S(=O)(=O)N2CCCC(C(=O)N3CCOCC3)C2)cc1C (stereo not drawn),/,-24,-6,-4,/,/,4.5,/,/,/
COc1ccc(C(=O)C2CCN(C(=O)c3ccc(OC)cc3)CC2)cc1,i,4,-4,/,-7.5,-11,1.2,-21,-20,0.2
O=C(O)CSc1nnc(C2CC2)n1-c1ccccc1,/,-3,-11,5,/,-4,2.1,/,/,/
C=CCO/N=C/C1C(=O)CC(C)(C)CC1=O,i,/,-20,-6,-0.4,-6,/,3,-4,1.3
CCN(Cc1cnn(C)c1)C(=O)CC1C(=O)NCCN1Cc1cccc(OC)c1OC (stereo not drawn),i,4,-8,-6,-0.4,-7,-0.5,-1,10,-1.4
Cn1c(=O)cc(SCC(=O)N2CCOCC2)c2ccc(Cl)cc21,/,-11,9,-10,/,2,4.3,/,/,/
CCCCn1c(C(C)NC(=O)c2cccs2)nc2ccccc21 (stereo not drawn),/,-5,11,-10,/,6,3.9,/,/,/
COc1cc2cc(CN(Cc3cccnc3)C(=O)Nc3ccccc3)c(=O)[nH]c2cc1OC,i,0,3,-12,0.2,8,2.4,-10,-11,2.6
O=C(NC1CCCCC1)C(c1ccncc1)N(C(=O)c1csnn1)c1ccccc1 (stereo not drawn),/,-11,0,-10,-0.2,8,5.2,7,8,0.0
Cc1ccc(N2CCOCC2)c2c1C(=O)c1ccccc1C2=O,i,7,-18,-4,64*,/,-1.9,-51,-68,-22
c1ccc2c(c1)nc(N1CCOCC1)c1nnnn12,i,0,-8,-22,3.0,-1,?,5,6,3.9
CCCC1(CCC)NC(=O)N(CC(=O)Nc2ccccc2OC)C1=O,/,-1,3,-2,/,/,0.4,/,/,/
Nc1ccc2nc[nH]c2c1,i,9,0,99*,14,4,-1.4,18,11,0.5
O=C(NC1CCCC1)c1cc2c(ccc3ccccc32)o1,/,-4,-17,/,/,3,0.4,/,/,/
CCCc1[nH]nc2c1C(c1ccc(O)cc1OCC)C(C#N)=C(N)O2 (stereo not drawn),/,-31,-20,34,/,-6,2.4,/,/,/
COCCNC(=S)NC1CC2CCCC(C1)N2Cc1ccco1 (stereo not drawn),/,-10,-2,7,/,-23,2.0,/,/,/
CCCS(=O)(=O)N1CCN(Cc2ccccc2OCC)CC1,/,3,-9,-13,/,-6,1.8,/,/,/
O=C(CSc1nc2ccccc2c(=O)n1Cc1ccco1)N1CCCC1,i,0,20,-6,-0.3,9,-4.0,/,/,/
O=C(Nc1ccon1)c1ccc(OC2CCCC2)cc1,/,-2,7,-4,/,-4,6.1,/,/,/
CCn1nc(C)c(CNC(=O)Nc2ccc3c(c2)OCO3)c1C,i,19,-5,/,-0.3,1,-1.3,3,7,-3.1

# Retrieved by structure from the list above (5):
SMILES,FGF22 binding,Calb FLC,T cruzi repl,ALR inh,AF4-AF9 inh,Beta cell apopt,RanGTP-Impb inh,rRNA inh HTS,rRNA inh HTS OD600,rRNA inh HTS RFP
O=C(NC1CCCCC1)C(c1ccncc1)N(C(=O)c1csnn1)c1ccccc1 (stereo not drawn),/,-11,0,-10,-0.2,8,5.2,7,8,0.0
Cn1c(=O)cc(SCC(=O)N2CCOCC2)c2ccc(Cl)cc21,/,-11,9,-10,/,2,4.3,/,/,/
COc1ccc(/C=N/NC2=NS(=O)(=O)c3ccccc32)cc1,i,4,-3,-2,0.8,-8,-2.8,0,12,5.5
CCN(Cc1cnn(C)c1)C(=O)CC1C(=O)NCCN1Cc1cccc(OC)c1OC (stereo not drawn),i,4,-8,-6,-0.4,-7,-0.5,-1,10,-1.4
O=C(O)CSc1nnc(C2CC2)n1-c1ccccc1,/,-3,-11,5,/,-4,2.1,/,/,/

# Further structures follow.
SMILES,FGF22 binding,Calb FLC,T cruzi repl,ALR inh,AF4-AF9 inh,Beta cell apopt,RanGTP-Impb inh,rRNA inh HTS,rRNA inh HTS OD600,rRNA inh HTS RFP
CC(C)(C)NC(=O)c1ccc2nsnc2c1,i,-5,9,-6,-7.8,-2,-3.1,17,12,-1.8
COc1cccc(OCc2cc(C(=O)NC(C)c3cnn(C)c3C)no2)c1 (stereo not drawn),i,-12,1,/,2.1,-2,1.4,-2,2,-2.3
CC(=O)c1ccc(OCC(O)CN2CCN(S(=O)(=O)c3c(C)cc(C)cc3C)CC2)cc1 (stereo not drawn),i,6,1,2,3.1,1,-1.6,-6,-18,10
CC(CCC(C)OC(=O)c1ccccc1C(=O)O)OC(=O)c1ccccc1C(=O)O (stereo not drawn),i,-3,-9,7,-1.7,4,0.0,21,10,-1.1
COC(=O)C1CCN(c2cc(=O)n(Cc3ccc(F)cc3)c(=O)[nH]2)CC1,i,-2,-13,-2,-0.2,-1,59*,7,5,-1.0
COCCN(C(=S)Nc1cc(C)cc(C)c1)C(C)c1ccco1 (stereo not drawn),i,-5,-12,/,3.3,0,1.4,-10,-13,9.6
O=c1ccc2cc(S(=O)(=O)Nc3ccc(Br)cc3)ccc2o1,+,43,-6,30,-1.8,-9,0.8,-26,-30,-11
COc1cc(/C=N/NC(=O)c2ccncc2)ccc1OCCN1CCCCC1,/,1,-4,-2,/,-3,4.6,/,/,/
COC(=O)c1c(C)[nH]c(C(=O)CSc2ncnc3sc(-c4ccccc4)cc23)c1C,/,-2,-13,-10,/,-4,1.0,/,/,/
O=C(c1ccc(Oc2ccc([N+](=O)[O-])cc2)cc1)N1CCCCCC1,i,-8,17,-32,-1.0,19,-1.2,-24,-31,1.4
Cc1cc(C)cc(OC(=O)CCN2C(=O)c3ccccc3C2=O)c1,i,-4,-16,6,-5.3,-6,0.8,-2,0,-5.1
COc1ccccc1N1CCN(S(=O)(=O)CCNC(=O)C2CCCCC2)CC1,/,-2,-9,2,-0.9,3,2.5,12,11,0.1
COc1cc(/C=N/NC(=O)c2cccnc2)ccc1OS(=O)(=O)c1ccc(C)cc1,i,-16,-4,45,1.1,4,0.5,-23,-19,-1.4
C/C(CC(=O)NC1CCCCC1)=N\NC(=O)Cc1ccc(-c2ccccc2)cc1,i,-8,19,-11,-2.0,-6,0.8,12,10,5.7
CC(=O)N1c2ccc(S(=O)(=O)N3CCCCC3)cc2CC1C(=O)NCc1ccccc1C (stereo not drawn),i,-3,-2,-5,2.0,/,-0.6,7,18,0.4
O=c1[nH]c(CN2CCCCC2)nc2ccccc12,/,-15,?,-27,/,1,5.4,/,/,/
COc1ccc(N2CCN(C(=O)COC(=O)c3ccco3)CC2)cc1,i,-2,-1,41,0.3,2,2.5,12,11,2.8
C#CCCOC(=O)N1C2=NC(C(=O)OC)=C(C(=O)OC)[C@@H]3N(C)c4ccc(OC)cc4[C@]23C[C@H]1C(=O)OC,i,14,-15,36,4.4,2,-2.5,1,4,-1.9
Cc1cc(C)c(NC(=O)CS(=O)CC(=O)Nc2cccnc2)c(C)c1 (stereo not drawn),/,-3,-19,-17,/,5,6.6,/,/,/
CC1CC(=O)NN=C1c1cccs1 (stereo not drawn),i,-3,/,5,-7.9,-4,2.4,5,-1,-1.0
CC(=O)Oc1ccc(C(=O)Nc2ccc3c(c2)OCCO3)cc1,i,9,2,6,0.5,15,1.9,-11,-4,-0.4
O=C(O)c1c2c(nc3ccccc13)/C(=C/c1ccccc1[N+](=O)[O-])CCC2,i,10,-11,-7,?,-5,0.8,2,5,-1.8
O=C(CCC1CC(=O)Nc2ccccc21)NCc1cccnc1 (stereo not drawn),i,-1,-10,/,3.6,-6,1.7,12,20,2.6
OCCN1CCOCCOCCN(CCO)CCN(CCO)CC1,/,-5,-10,-13,/,-2,-2.7,/,/,/
O=C(O)CCCC(=O)N1CCN(C(c2ccccc2)c2ccccc2)CC1,i,-9,4,2,0.4,-2,-0.7,13,5,-2.1
# Further records follow:
SMILES,FGF22 binding,Calb FLC,T cruzi repl,ALR inh,AF4-AF9 inh,Beta cell apopt,RanGTP-Impb inh,rRNA inh HTS,rRNA inh HTS OD600,rRNA inh HTS RFP
CN(C)S(=O)(=O)c1cc(NC(=O)c2cc(=O)[nH]c3ccccc23)ccc1Cl,/,38,-2,-9,/,-5,1.1,/,/,/
O=C(CSc1nc2c(sc3ccccc32)c(=O)n1-c1ccccc1)NCc1ccco1,/,-6,14,2,/,-2,1.1,/,/,/
COc1cccc(-c2sc3ccc(OC)cc3c2C#CC(C)(C)O)c1,i,/,/,-1,/,-6,/,-15,-31,11
Cc1ccc(CSc2nc3c(c(=O)[nH]2)CCC3)cc1,/,-18,-4,-4,/,-9,1.8,/,/,/
Cc1cccc(NC(=O)C2CCCN2/C=C/C(=O)C(F)(F)F)c1C (stereo not drawn),/,17,-3,/,/,1,2.3,/,/,/
Cc1ccc(-c2nc(S(=O)(=O)c3ccc(C)cc3)c(SCC(N)=O)o2)cc1,i,1,-1,-18,5.0,-8,-3.6,1,7,-3.8
Cc1cc(C)n(CC(=O)c2ccc(Cl)cc2)n1,/,47,-11,-7,-7.2,-4,0.3,9,8,0.6
O=C(CCCN1C(=O)c2ccccc2C1=O)N1CCN(c2ccccn2)CC1,/,1,5,-5,/,3,-2.4,/,/,/
O=C(NCCCN1CCOCC1)c1ccc(CSCc2cccc(Cl)c2)o1,i,-4,11,?,/,0,0.1,-1,9,0.8
CN1CCN(c2ccc(Nc3ccnc4cc(Cl)ccc34)cc2)CC1,/,10,60*,92*,15,11,-4.8,7,-9,-7.5

# Source: PubChem (Broad Institute)

# Not all compounds are listed (hit frequency here may not be typical).
